Ab BasE inh: BasE siderophore enzyme inhibitors, primary screen, biochemical, Acinetobacter baumannii ATCC 17978, fluorescence polarization; purified BasE, fluorescence polarization binding displacement; inhibition, % (test concentration not listed); hit rate 0.1% among 84,000;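 active means both replicates above 25% with normal brightness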;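 further: 0% = negative plate control signal and 100% = positive plate control signal; stock transfer was 100 nL into about 30 µL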
LANA-nucl inh: inhibitors of KSHV LANA-nucleosome binding, primary screen, biochemical, fluorescence polarization, FITC-LANA1-23, chicken nucleosomes | FITC-LANA1-23 / chicken nucleosome fluorescence polarization; stronger effect = lower value | z-score (no concentration beside the values) | hit rate 0.3% among 51,000 | AID 720717, 2013;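 active means both repeat wells score below -2 in polarization z-score versus plate sample wells, excluding overly bright wells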;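 further: 100 nL library stock added to about 30 µL; numbers are from one replicate; some results filed as inactive read as strong as hits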
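Assay system: purified chicken nucleosomes with FITC-labelled LANA N-terminal peptide (1-23) / Probe or stimulus: 50 nM FITC-LANA1-23 probe / Compound dosing: pin-transferred compound, 100 nL / Times: compound with peptide–nucleosome mix 10–45 min at room temperature / Technique: fluorescence polarization, 480 nm excitation, 535 nm parallel and perpendicular emission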
* = called active by the depositor; / = not tested or not shown; & = joins results of further samples. Only part of the results is shown; count on the stated rates, not on these rows.

SMILES	Ab BasE inh	LANA-nucl inh
Oc1c(Cl)cc(Cl)cc1C1c2cccn2CC2CCCCN21 (stereo unspecified)	/	2.49
CC(C(=O)O)n1c(=S)[nH]c2ccccc2c1=O (stereo unspecified)	0.9	/
CC(C)N1CCCC(CN)C1 (stereo unspecified)	3.4	-0.759
COc1ccc(-c2noc(CNC(=O)CC(C)(C)C)n2)cc1	0.0	-0.94
C=C(C)Cn1c(CCn2c3ccccc3c3ccccc32)nnc1SCC(=O)OC	1.8	-0.325
Cn1nnnc1SCc1ccc(C(=O)Nc2ccc(Br)cc2)cc1	-4.7	1.37
COc1ccccc1CN1CCC(C(=O)NCc2ccc(C)cc2)CC1	-2.5	0.114
CCCCc1cc(=O)oc2cc3oc4c(c3cc12)CCCC4	0.4	/
CS(=O)(=O)c1cc2cc(Cl)ccc2oc1=O	0.7	/
Cc1occc1C(=O)N/N=C/C=C/c1ccccc1	-0.9	-0.112
Cc1cc2cc(CNS(=O)(=O)c3ccc(Cl)cc3)ccc2n1C	-0.1	-1.09
CCc1cc(=O)oc2cc(O)cc(O)c12	-4.2	2.47
COc1nc(NCCc2ccc(OC)c(OC)c2)nc(Nc2ccc(Cl)cc2)n1	1.9	/
O=C(Nc1ccc(-n2cnnn2)cc1)C1(Cc2nc3ccccc3s2)CCCC1	-2.2	/
Cc1cc(C)nc(NC2=NCC(=O)N2c2ccc(Oc3ccccc3)cc2)n1	-1.4	1.54
Cc1cn[nH]c1	/	-0.234
S=C(Cc1ccccc1)N1CCCCC1	-0.4	0.211
Cc1ccc(C(=O)NCCn2cccc2)cc1	-0.9	-0.611
COc1ccc(SCC(=O)c2ccc(O)cc2O)cc1	-0.1	/
Nc1c(C(=O)NCc2ccccc2)nnn1Cc1ccccc1	2.8	-0.359
CC(C)OCC(O)Cn1c2ccccc2c2ccccc21 (stereo unspecified)	-1.4	-0.708
Cc1cc(C)n(-c2nc3ccccc3nc2NCC(C)O)n1 (stereo unspecified)	0.5	-0.229
Cc1ccc(S(=O)(=O)CCN2CCC(C(F)(F)F)CC2)cc1	1.6	/
CN(C)S(=O)(=O)c1cccc(CN2C(=O)NC(CCc3ccccc3)C2=O)c1 (stereo unspecified)	-2.2	/
Cc1ccc(Cl)cc1NC(=O)c1cc(NC(=O)C2CC=CCC2C(=O)O)ccc1N1CCOCC1 (stereo unspecified)	-0.1	-0.443
O=C(NCc1cccnc1)C1CC(c2ccccc2F)=NO1 (stereo unspecified)	2.1	-1.94
COc1ccc(NC(=O)CCc2nc3cc(S(=O)(=O)N4CCCCC4)ccc3n2C)cn1	3.5	/
O=C(Sc1ccccc1)c1ccc(C(F)(F)F)cc1	-0.1	/
NCCc1cnc[nH]1	-1.8&0.5	-0.356&-0.295&0.654
O=C(COCc1cc(-c2ccc(F)cc2)on1)N(CC1CC=CCC1)CC1CCCO1 (stereo unspecified)	-4.0	0.772
CCCCn1c(-c2ccco2)nc2ccccc2c1=O	0.2	/
COC(=O)COc1cccc(NC(=O)c2ccccc2F)c1	-0.6	-0.47
Nc1ccc(S(=O)(=O)NC2=NCCC2)cc1	2.6	/
O=C(NCC1COc2ccccc2O1)c1cn(Cc2ccc(F)cc2)nn1 (stereo unspecified)	1.8	-1.36
CCCN1c2cccc3cccc(c23)S1(=O)=O	-2.2	-1.21
Cc1cc(C)cc(OCCCCn2cncn2)c1	1.3	-1.14
COc1ccc(N=Cc2cn(-c3ccc(OC)cc3)cc2C=Nc2ccc(OC)cc2)cc1	1.0	/
O=C(NCc1ccc2c(c1)OCO2)C1CC2C=CC1C2 (stereo unspecified)	0.0	/
O=C(CSc1nnc(Cc2cccs2)n1Cc1ccco1)Nc1ccc(Br)cc1	0.4	0.202
O=C1c2ccccc2C(=O)N1CCCCN1C(=O)c2ccccc2S1(=O)=O	0.1	/
CC(C)(CC(=O)O)CC(=O)N1CCCN(c2nccc(C(F)(F)F)n2)CC1	-4.1	2.04
COC(=O)C(C)Sc1ncnc2sc(C)c(C)c12 (stereo unspecified)	-0.9	/
CC1CCC(NC(=O)c2cc3c(s2)CSC3)CC1 (stereo unspecified)	0.2	0.404
COc1ccc(Br)cc1CNC(=O)c1oc2ccc3c(c2c1C)C(=O)CC(C)(C)O3	0.9	0.233
CSc1ccccc1CNC(=O)NC12CC3CC(CC(C3)C1)C2	2.6	/
Nc1nnc(CCS(=O)(=O)c2ccc(Br)cc2)s1	2.6	/
CN(C)CCNCc1cc2c(-c3cccc(F)c3)nn(-c3ccccc3)c2[nH]c1=O	-2.2	-0.554
Cn1nc(-c2ccccc2F)c2cc(C(=O)Nc3ccc4c(c3)OCO4)sc21	-0.7	1.51
O=S(=O)(Cc1ccc(F)cc1)Cc1noc(-c2ccno2)n1	0.8	/
c1ccc(-n2ncc3c(N4CCOCC4)ncnc32)cc1	4.0	-0.151
Next part
SMILES	Ab BasE inh	LANA-nucl inh
CC(C)(C)OC(=O)Cn1ccc(=O)[nH]c1=O	-0.3	/
Nc1ccc(S(=O)(=O)C(F)(F)F)cc1	-0.2	/
CCCCNC(=O)Cn1c(=S)[nH]c2c([nH]c3ccc(OC)cc32)c1=O	-0.5	0.0615
O=S(=O)(NCC1OCCc2ccccc21)c1ccccc1 (stereo unspecified)	-0.7	0.673
O=C(Nc1cccc(C(F)(F)F)c1)C1CC(c2ccccc2O)=NO1 (stereo unspecified)	0.0	0.182
OC(CN1CCN(c2nc3ccccc3s2)CC1)c1ccc(Cl)cc1 (stereo unspecified)	-1.5	0.58
COc1cc(OC)cc(C(=O)N2CCC(C(=O)NC(C)C)CC2)c1	-0.6	0.78
CC1(C)Cc2nc3sc4c(NCC5CCCO5)ncnc4c3cc2CO1 (stereo unspecified)	-0.4	/
O=P(O)(O)C(O)(Cn1ccnc1)P(=O)(O)O	/	0.754
CCCCSC1=NS(=O)(=O)c2ccccc2N1CCCC	0.2	0.277
O=C(OCC(=O)c1cccs1)c1ccc2c(c1)S(=O)(=O)c1ccccc1C2=O	0.7	/
O=C1S/C(=C/c2cc3c(cc2Cl)OCO3)C(=O)N1c1ccccc1	2.3	-0.307
Cc1cccc(-n2nnnc2SCC(=O)c2c[nH]c3ccccc23)c1	-1.9	/
CCOC(=O)c1c(N/C=C(\C#N)c2nc(-c3cccs3)cs2)sc2c1CCC2	-6.6	1.43
C[C@]12C[C@H](O)[C@H]3[C@@H](CCC4=CC(=O)CC[C@@]43C)[C@@H]1CC[C@@H]2C(=O)CO	-3.1	2.24&0.548&0.168
CCNc1nc(F)cc(F)n1	-0.4	1.48
O=P(O)(c1ccccc1)c1ccccc1	2.0	0.736
CC(C)C(=O)NN=C1CCC(=NNC(=O)C(C)C)CC1	-0.5	0.0505
Cc1ccccc1CN(CCO)Cc1ccccc1	-2.8	-0.249
CC(Oc1ccc2oc3ccccc3c2c1)C(=O)NC(N)=O (stereo unspecified)	1.0	/
CNC(=O)CN(c1cccc2ccccc12)S(C)(=O)=O	0.7	-0.158
Cc1cnc(C(=O)OCC(=O)N2CC3(C)CC2CC(C)(C)C3)cn1 (stereo unspecified)	-1.6	/
CC(=O)Nc1cccc(OCCCNS(=O)(=O)c2cn(C)c(C)n2)c1	-0.1	-0.491
CN(C)C(=O)CSc1ccccc1C(=O)OCC(=O)NC1(C#N)CCCC1	1.5	/
O=C(Nc1cccnc1)C(Cc1ccccc1)N1C(=O)c2ccccc2C1=O (stereo unspecified)	-0.5	-0.0865
CCOC(=O)/C(=N\O)C1=CSC2=NNC(C)(C)N12	0.7	/
Brc1ccc(-c2cnc(-c3ccccc3)o2)cc1	2.1	/
CCC(Sc1nc(-c2ccccc2)c(-c2ccccc2)[nH]1)C(=O)O (stereo unspecified)	-4.0	/
CCOC(=O)c1cc(OC(=O)c2cccnc2)n(-c2ccccc2)n1	-1.0	0.0625
CC(C)CN(CC(C)C)S(=O)(=O)c1cccs1	-0.1	0.201
NC(=O)C1CCN(C(=O)CN2CCC(Cc3ccccc3)CC2)CC1	1.2	0.794
CN(C)C(=S)SCCCn1c(=O)[nH]c2ccccc21	-0.4	/
COc1ccc(-n2[nH]c(C)c(C(C)=NCCc3ccc(S(N)(=O)=O)cc3)c2=O)cc1	-3.0	0.394
O=C(c1cnc2ccc(Cl)cc2c1Cl)N1CCOCC1	-0.6	-0.686
CC(=O)N1CCc2c(sc3nc(SCc4cccc(F)c4)n(Cc4ccco4)c(=O)c23)C1	-3.3	0.802
CC1CC(C)CN(S(=O)(=O)c2ccc3nnn(O)c3c2)C1 (stereo unspecified)	1.8	/
CN(C)C1(CNCC(=O)Nc2ccc(Cl)cc2Cl)CCCCC1	0.5	/
O=c1c2cnn(-c3cccc(Cl)c3)c2ncn1CCC1OCCO1	-1.3	0.0295
CN1CCN(C(=O)c2ccccc2NC(=O)COc2ccc(Cl)cc2)CC1	-2.4	2.1
CCOC(=O)COc1ccc(C=C2C(=O)NC(=O)NC2=O)cc1Br	-0.1	0.81
CCCCC[C@H](O)/C=C/[C@@H]1[C@@H](CCCCCCC(=O)O)[C@@H](O)C[C@H]1O	-3.7	-0.591
CCN(CCO)c1ncnc2onc(-c3ccccc3C)c12	0.6	/
Cc1ccc(Nc2nc(C(=O)NCC3CCCO3)cs2)cc1 (stereo unspecified)	-1.1	0.134
CC(=O)Nc1nonc1NC(C)=O	-1.9	-0.0165
O=C(NN1C(=O)S/C(=C/c2ccc(Cl)cc2)C1=S)c1ccccc1Cl	3.8	/
O=C(c1ccc[nH]1)c1cc2cc(Br)ccc2o1	-6.5	/
CP(=O)(O)CN1CCN(CP(C)(=O)O)CC1	0.1	-0.905
O=C(O)c1ccccc1C1=Nc2ccc(O)cc2Oc2cc(O)ccc21	38.2	-6.08*
CN(C)CCN(Cc1ccccc1)Cc1c(F)cccc1Cl	-3.7	0.262
Cc1csc2nc(COC(=O)CSc3ccccc3)cc(=O)n12	-1.7	-0.83
Additional records follow:
SMILES	Ab BasE inh	LANA-nucl inh
CCc1ccc2[nH]c(C(=O)NCc3ccccc3)cc2c1	-0.7	/
Cc1cc(NC(=O)c2sc3nc4c(cc3c2N)C2CCN4CC2)no1	1.9	-0.363
Cc1nn2c(=O)/c(=C/c3ccccc3)sc2nc1=O	0.1	/
COC(=O)c1scc(C)c1NS(=O)(=O)c1ccc2c(c1)CCO2	-1.0	/
CCOC(=O)NC(=S)Nc1ccc(F)cc1F	-1.6	0.81
CCCc1nc(SCC(=O)N2CCCC2)c2ccccc2n1	-2.0	1.07
O=C1CCC(C(=O)N=c2sccn2Cc2ccc(Cl)cc2Cl)=NN1	-3.2	/
O=C(Nc1ccc2c(c1)oc1ccccc12)C1CC1	-1.1	-1.13
O=C(O)c1cc(C(=O)O)cc(N2C(=O)c3ccccc3C2=O)c1	0.2	-0.896
CN(c1ccccc1)S(=O)(=O)c1cn(C)c(=O)n(C)c1=O	0.2	/
CCNc1ccc(C(=O)O)cc1N	2.9	/
Nc1c(C(=O)c2ccco2)oc2ccccc12	6.4	/
CC(=O)N1CCC(C(=O)OCC(N)=O)(c2ccccc2)CC1	1.2	/
O=S(=O)(Nc1ncccn1)c1ccccc1	0.7	-0.763
COc1ccc(CC(=O)Oc2ccc(F)cc2)cc1	-0.9	-1.49
Cc1ccc2c(c1)N(C(C)C(=O)NCc1ccc3c(c1)OCO3)C(=O)CO2 (stereo unspecified)	-4.1	0.024
CC(C)NC(=O)CN1CCN(Cc2c(O)ccc3cc(Br)ccc23)CC1	1.8	/
CC1OCN(c2ccc(OC(F)(F)F)cc2)Cn2c1nc1ccc(Cl)cc12 (stereo unspecified)	2.3	/
CC(C)NC(=O)C(C)Oc1ccc(S(N)(=O)=O)cc1 (stereo unspecified)	1.3	-0.695
CC[C@H]1OC(=O)[C@H](C)[C@@H](O[C@H]2C[C@@](C)(OC)[C@@H](O)[C@H](C)O2)[C@H](C)[C@@H](O[C@@H]2O[C@H](C)C[C@H](N(C)C)[C@H]2O)[C@](C)(O)C[C@@H](C)C(=O)[C@H](C)[C@@H](O)[C@]1(C)O	-2.5	-0.0935&-0.214
CCc1cc(=O)oc2cc(C)c3c(-c4ccccc4)coc3c12	-0.2	/

Assay outcomes: PubChem, ICCB-Longwood Screening Facility, Harvard Medical School
